Screens from PubChem BioAssay.
D2 potentiator: Beta-Arrestin HTS for Positive Allosteric Modulators of the Human D2 Dopamine Receptor: Potentiators. D(2) dopamine receptor (Homo sapiens), P14416. potentiation, % (no concentration beside the values). 360,000 tested, 0.23% active. AID 624464, 2012. DiscoveRx D2 beta-arrestin cells, luminescence, 90 min; 100% = 57 uM dopamine signal; active = potentiation of 50% or more; inconclusive = 30% to 50%; inactive = 30% or less;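 note: compound concentration not given in the record; tested on top of an EC20 dose of dopamine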
Target sequence (P14416 whole entry, looked up): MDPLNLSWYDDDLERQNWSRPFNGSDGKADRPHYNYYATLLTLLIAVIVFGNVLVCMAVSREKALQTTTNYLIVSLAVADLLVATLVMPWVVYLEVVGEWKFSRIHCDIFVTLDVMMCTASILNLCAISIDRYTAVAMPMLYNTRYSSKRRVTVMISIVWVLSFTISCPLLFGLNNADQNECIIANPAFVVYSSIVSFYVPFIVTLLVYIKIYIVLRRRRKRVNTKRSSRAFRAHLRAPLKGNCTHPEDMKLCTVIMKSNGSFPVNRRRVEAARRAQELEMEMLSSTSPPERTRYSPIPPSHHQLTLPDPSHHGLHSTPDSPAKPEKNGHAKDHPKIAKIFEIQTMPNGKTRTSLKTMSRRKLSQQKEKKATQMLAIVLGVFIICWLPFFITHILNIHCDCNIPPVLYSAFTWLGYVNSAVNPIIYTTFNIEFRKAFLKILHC
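PathHunter beta-arrestin assay in DiscoveRx D2 cells. Compounds were added with an EC20 of dopamine (50 nM final) for 90 min at 37 deg C. Luminescence was read 1 h after detection reagent, with 57 uM dopamine as the EC100 control.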
D2 agonist: Beta-Arrestin HTS for Positive Allosteric Modulators of the Human D2 Dopamine Receptor: Agonists. 360,000 tested, 0.084% active. activation, % (test concentration not listed). AID 624465, 2012. D(2) dopamine receptor (Homo sapiens), P14416. DiscoveRx PathHunter D2 beta-arrestin, luminescence, 90 min; 100% = 57 uM dopamine signal; in the data active = activation above about 40%; inconclusive = about 15% to 40%; inactive = below about 15%; note: compound concentration not given in the record; the text of the record calls up to 30% inactive
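Agonist mode: compounds alone added to overnight-plated D2 PathHunter cells for 90 min at 37 C, with 57 uM final dopamine (EC100) defining full response. Beta-arrestin recruitment detected by chemiluminescent reagent, read after 1 h at ambient temperature.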
Six1-Eya2 inh: qHTS Assay for Inhibitors of the Six1/Eya2 Interaction; 360,000 tested, 0.56% active; AID 651725, 2012; activity change, % (test concentration not listed); AlphaScreen GST-Six1/His-Eya2 binding, biochemical; hits give low values; control for the full effect not named in the record; Homeobox protein SIX1 (Homo sapiens) + Protein phosphatase EYA2 (Homo sapiens), …; in the data active = activity change below about -65%; inconclusive = about -30% to -65%; inactive = above about -30%; note: % is set by controls: 0 for no effect and ±100 for the full control effect; compound concentration not given in the record
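GST-Six1 + His-Eya2 (5X stock: 250/500 nM); Tris pH 8.0, 300 mM NaCl, 0.05% BSA, 0.02% Tween 20; GSH donor/Ni acceptor beads; 1 h 37 °C dark; AlphaScreen readout.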
TRPML1 blocker: qHTS for Inhibitors of the Human Mucolipin Transient Receptor Potential 1 (TRPML1); Mucolipin-1 (Homo sapiens), Q9GZU1; TRPML1-inducible cells, Ca2+ dye fluorescence, FDSS; hits give low values; inhibition of EC80 agonist-evoked calcium signal; activity change, negative = inhibition, % (no concentration beside the values); 390,000 tested, 0.02% active; AID 624415, 2012; in the data active means activity change below about -50%; inconclusive means about -30% to -50%; inactive means above about -30%;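 note: stimulus is agonist 54-4 at its EC80 concentration; % is set by controls: 0 for no effect and ±100 for the full control effect; compound concentration not given in the record; the text of the record puts the active cut at -80%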
Target sequence (Q9GZU1 whole entry, looked up): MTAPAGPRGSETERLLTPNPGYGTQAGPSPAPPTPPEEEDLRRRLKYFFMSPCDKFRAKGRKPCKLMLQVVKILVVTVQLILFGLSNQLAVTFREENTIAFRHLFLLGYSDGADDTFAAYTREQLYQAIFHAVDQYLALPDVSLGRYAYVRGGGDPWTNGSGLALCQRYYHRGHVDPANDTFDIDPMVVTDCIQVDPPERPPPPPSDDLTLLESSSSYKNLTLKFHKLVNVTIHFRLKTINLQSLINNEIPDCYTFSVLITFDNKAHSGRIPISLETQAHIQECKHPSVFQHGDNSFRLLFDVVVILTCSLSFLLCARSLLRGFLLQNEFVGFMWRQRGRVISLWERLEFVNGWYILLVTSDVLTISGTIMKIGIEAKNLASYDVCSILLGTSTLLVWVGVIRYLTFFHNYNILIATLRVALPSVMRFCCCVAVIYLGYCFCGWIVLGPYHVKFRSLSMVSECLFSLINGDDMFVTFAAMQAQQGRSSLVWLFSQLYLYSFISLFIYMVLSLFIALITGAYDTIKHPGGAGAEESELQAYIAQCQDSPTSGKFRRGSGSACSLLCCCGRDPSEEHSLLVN
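Tet-induced TRPML1-DL cells loaded with Ca8 no-wash calcium dye were read kinetically on FDSS. Compound addition was followed by EC80 agonist 54-4 (4 uM final); inhibition was read over 110 s.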
PINK1 modulator: A Quantitative High throughput Screen to Identify Chemical Modulators of PINK1 Expression | PINK1 immunofluorescence, high-content cytometry, 24 h | Potency, µM (titrated, usually from 76.6 µM), for the others: at the highest dose activation (PINK1 increase), hits mostly activators | 410,000 tested, 0.2% active; active = well fitted activation curve with a large enough effect; inconclusive = small, poorly fitted or top-dose-only effect; inactive = flat fitted curve, though single readings scatter; cell line not stated here;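 note: potency is the fitted concentration of half-maximal effect; % of control where 0% means no effect; nearly all actives have a fitted effect of over 65% in size; a mitochondrial uncoupler was the plate control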
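Readout is PINK1 immunofluorescence, quantified alongside mitochondrial, cell and nuclear markers by laser-scanning microplate cytometry. Cells from a stable line were exposed to compound titrations (5 concentrations) for 24 hours, with CCCP controls.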
TRPML1 agonist: qHTS for Agonists of the Human Mucolipin Transient Receptor Potential 1 (TRPML1). Mucolipin-1 (Homo sapiens), Q9GZU1. TRPML1-expressing cells, Ca2+ dye fluorescence, FDSS; host cell line not named in the record; reference of the full effect not given here. activation, % (concentration not given with the values). 410,000 tested, 0.12% active. AID 624414, 2012; in the data active = activation above about 50%; inconclusive = about 30% to 50%; inactive = below about 30%; note: 0% is about no effect; the text of the record puts the active cut at 80%
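In this qHTS format, compounds were pin-transferred onto Ca8-dye-loaded TRPML1-DL cells induced with Tet overnight, and intracellular Ca2+ fluorescence was recorded kinetically for 110 s after a 10 s baseline. A subsequent 4uM final 54-4 (EC80) addition followed by a second 110 s read served as the antagonist phase.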
Starred values were filed as active, the others as inactive; ? = inconclusive; · = not tested or not shown; [ ] = another dose, or the depositor's remark. Hits appear at their usual frequency, and some 1% of all compounds hit somewhere here.

item	SMILES	PINK1 modulator	TRPML1 agonist	D2 agonist	D2 potentiator	TRPML1 blocker	Six1-Eya2 inh
1	C=CCN1C(=O)C(CC(=O)Nc2ccccc2)SC1=Nc1ccc(S(N)(=O)=O)cc1 (stereo not given)	2.6%[38.3 µM]	1.0	0.5	-11	14	0
2	COc1ccc(C(C)=O)cc1COC(=O)CCC(=O)N(CC(C)C)c1c(N)n(CC(C)C)c(=O)[nH]c1=O	4.5%	0.3	-2.8	-13	-2	7
3	C=CC[C@@H](CC(=O)N(CCO)Cc1ccccc1)C(=O)NC[C@@H](OC(=O)[C@@H](CC=C)CC(=O)OC(C)(C)C)c1ccccc1	5.9%	0.2	1.9	7	23	-9
4	CCCCNC(=O)CCn1c(=O)c2ccccc2n(Cc2ccccc2C#N)c1=O	1.2%	-0.7	·	·	-3	·
5	OCCN(Cc1ccccc1)Cc1cccc(C(F)(F)F)c1	?	1.5	0.7	-15	0	10
6	Cc1nnc(SCc2nc3sc4c(c3c(=O)[nH]2)CCCC4)n(N)c1=O	-0.2%	1.0	-3.7	-5	6	-1
7	Cc1cc(NC(=O)COn2nnc3ccccc32)no1	1.8%	1.4	6.7	-16	-21	0
8	CC1CCCCN1C(=O)CN1CCN(S(=O)(=O)c2ccc(Br)cc2Cl)CC1 (stereo not given)	-1.1%	-0.5	5.0	-3	31	-2
9	CCCCNC(=O)C1(C)CCN1C(=O)c1ccc2sccc2c1 (stereo not given)	0.5%	-0.8	-1.6	-5	·	4
10	CCNC(=S)N1CCN(CCN=CC2=C(O)CC(C)(C)CC2=O)CC1	-2.0%	-0.1	-5.9	-14	5	6
11	Cc1ccccc1NC(=O)Nc1csc2c1CCCC2	-0.1%	-0.3	·	·	25	·
12	Cc1ccccc1/C=C1\OC(=O)c2ccccc21	7.3%[38.3 µM]	4.3	-3.4	-9	26	15
13	O=C(c1ccc(CNS(=O)(=O)c2ccc(Br)cc2)cc1)N1CCCCCC1	-1.2%	-0.2	1.0	-12	-1	5
14	CCC1(C(=O)O)NC(c2cccc(OC)c2O)C2C(=O)N(c3ccccc3)C(=O)C21 (stereo not given)	0.6%	0.2	-10	-10	1	-6
15	CCOC(=O)/C(C#N)=C/c1ccc(-c2ccccc2)o1	1.2%	0.5	·	·	-2	·
16	CCOC(=O)c1c(NC(=O)CSc2nc3ccccc3[nH]2)sc2c1CC(C)(C)NC2(C)C	-1.2%	0.0	-10	-16	-2	-8
17	Cc1ccc(C)c(S(=O)(=O)N/N=C2/CCCc3ccccc32)c1	-1.3%	0.8	-1.2	1	-2	-2
18	Cc1ccc(CNC(=O)CCNS(=O)(=O)c2ccc(C)cc2)cc1	-0.9%	-0.5	-5.4	-12	8	-2
19	COC(=O)/C=C(\C)NC(=O)c1ccccc1Cl	?	3.8	-2.9	-2	11	20
20	O=C(CCNC(=O)c1ccc(Br)cc1)Nc1nccs1	3.3%	0.0	-1.2	-7	15	4
21	COc1cc(-c2nc(Cn3nnc(C(=O)Nc4ccccc4)c3C)c(C)o2)cc(OC)c1OC	2.2%	-0.3	·	·	14	·
22	CCCN(CC(=O)Nc1ccc(F)c(F)c1F)C(=O)c1ccc2c(c1)NC(=O)CS2	0.4%	0.4	-1.2	-6	-5	4
23	Nn1c(SCC(=O)NC2CCS(=O)(=O)C2)nnc1-c1cccs1 (stereo not given)	-0.8%	0.3	-2.1	-5	-2	13
24	COc1ccc(C(=O)CSC2=C(C#N)C3(CCCCC3)C(C#N)=C(N)N2)cc1	5.5%[38.3 µM]	1.7	1.2	-1	33	-1
25	CCCNC(=O)COC(=O)/C=C/c1ccco1	-2.1%	-0.2	-5.1	-13	21	3
26	COc1ccc(C(O)c2nc(-c3ccccc3C)cs2)cc1 (stereo not given)	0.9%	0.0	4.3	-2	·	-3
27	CCOc1ccc(S(=O)(=O)NCc2ccccn2)cc1	·	0.1	-1.3	16	-4	6
28	Clc1ccc(CSc2ccc(-c3cccs3)nn2)cc1	3.2%	0.6	·	·	-3	·
29	Cc1cc(C)n(Cc2ccc(Cl)cc2Cl)c(=O)c1S(=O)(=O)c1ccccc1	-0.5%	71*	-0.6	-6	-3	2
30	O=C(CN1CCN(C/C=C/c2ccccc2)CC1)NCc1ccc(Cl)cc1	1.7%	·	-4.8	-30	·	-4

Just D2 agonist and TRPML1 agonist, for some of the entries so far:
| item | structure | D2 agonist | TRPML1 agonist |
| --- | --- | --- | --- |
| 11 | Cc1ccccc1NC(=O)Nc1csc2c1CCCC2 | · | -0.3 |
| 12 | Cc1ccccc1/C=C1\OC(=O)c2ccccc21 | -3.4 | 4.3 |
| 13 | O=C(c1ccc(CNS(=O)(=O)c2ccc(Br)cc2)cc1)N1CCCCCC1 | 1.0 | -0.2 |
| 14 | CCC1(C(=O)O)NC(c2cccc(OC)c2O)C2C(=O)N(c3ccccc3)C(=O)C21 (stereo not given) | -10 | 0.2 |
| 15 | CCOC(=O)/C(C#N)=C/c1ccc(-c2ccccc2)o1 | · | 0.5 |

Entries by screen from the list.
Six1-Eya2 inh for entries 26–30: -3, 6, ·, 2, -4

(cont.)
item	SMILES	PINK1 modulator	TRPML1 agonist	D2 agonist	D2 potentiator	TRPML1 blocker	Six1-Eya2 inh
31	CCc1ccc(N(C(=O)c2ccco2)C(C(=O)NC2CCCC2)c2ccco2)cc1 (stereo not given)	2.4%	-0.7	-6.6	-7	28	7
32	O=C(CCSc1ccccc1)N1CCN(c2ccccc2F)CC1	-0.6%	2.7	1.4	-10	-2	-6
33	CC(C)(C)OC(=O)N1CCCC(C(=O)Nc2ccc(C(=O)NCCc3ccccc3)cc2)C1 (stereo not given)	1.7%	2.8	1.5	-10	7	0
34	Cc1ccc(-c2cn3c(=S)[nH]nc3s2)cc1	-2.5%	0.6	-4.7	-4	0	-5
35	Cc1ccc(C)c(-n2cc(-c3ccccc3)nc2SCC(=O)Nc2ccccc2)c1	-0.3%	-0.1	·	·	6	·
36	CNC(=O)c1cc2ccccc2o1	2.9%	-1.0	-3.0	-5	-9	3
37	O=C(Nc1ccccc1)C1=C[C@H](c2ccc3c(c2)OCO3)C[C@H](OCCCCO)O1	0.4%	-0.6	-0.1	4	7	-14
38	CCOc1cc(C2C(C(=O)N3CCCCC3)=C(C)NC3=C2C(=O)CCC3)cc(Br)c1O (stereo not given)	8.5%[38.3 µM]	0.3	0.1	5	-4	10
39	COc1ccc(OCC(=O)NNC(=O)c2ccc3c(=O)n4c(nc3c2)CCC4)cc1	3.7%	0.1	-0.3	9	11	-8
40	COc1cccc(C(=O)COC(=O)CCC(=O)c2ccccc2)c1	0.0%	5.3	0.1	-2	-2	4
41	COc1cccc(N2CCN(S(=O)(=O)c3cc4c(cc3Cl)NC(=O)CO4)CC2)c1	4.2%	0.1	-7.6	-4	-3	1
42	S=c1[nH]nc(COc2ccccc2)n1/N=C/c1ccc(Cl)cc1Cl	2.7%	-0.6	-4.2	-14	-11	-7
43	O=c1c(NCc2ccccc2Cl)nccn1-c1ccccc1	-0.5%	2.0	·	·	15	·
44	CC1CCCCC1NC(=O)COc1cccnc1[N+](=O)[O-] (stereo not given)	2.3%	1.3	-1.0	-4	11	5
45	COc1ccc(N=C2CCS(=O)(=O)c3sccc32)cc1	3.4%	-0.6	1.1	-3	-14	4
46	Cc1occc1C(=O)N1CCN(C(=O)C2CCCO2)CC1 (stereo not given)	-2.9%[38.3 µM]	-0.5	-0.8	6	-17	3
47	CCCCn1nnnc1C(c1cccc2ccccc12)N1CCN(C/C=C/c2ccccc2)CC1 (stereo not given)	11%	13	1.1	-13	·	-18
48	O=C(COC(=O)c1n[nH]c2ccccc12)c1cccc(Br)c1	2.9%	-0.5	-0.6	-8	-2	-1
49	O=C(O)c1cccc(S(=O)(=O)N2CCN(S(=O)(=O)c3ccc4ccccc4c3)CC2)c1	0.3%	-0.7	-1.8	6	-4	-1
50	CCOC(=O)c1ccc(NC(=O)COc2ccccc2CNCCO)cc1	-0.3%	3.8	-4.7	-16	24	7
51	CCn1c(=O)n(CC)c2cc(N)ccc21	1.7%	2.0	-0.3	2	10	-1
52	C[C@]12c3[nH]c4ccc(Cl)cc4c3CCN1C(=O)[C@@H](CC(=O)NCCc1ccccn1)C[C@@H]2C(=O)N1CCCCC1	5.6%	-0.6	-1.2	-3	-7	-5
53	O=C(NC1=NCCS1)c1cc(-c2ccc(-c3ccccc3)cc2)nc2ccccc12	5.8%	1.1	-0.7	-12	-10	-1
54	CCC(=O)Nc1cccc(C2=NOC3(C2)C[C@@H](C(N)=O)N(C(=O)COc2ccc(Cl)cc2)C3)c1 (stereo not given in full)	0.3%	-0.3	-0.5	-3	8	4
55	CCCC(=O)N(c1ccc2oc(C)c(C(C)=O)c2c1)S(=O)(=O)c1ccc(CC)cc1	-0.1%	2.1	·	·	8	·
56	Cc1cccc(C)c1OCC(=O)Nc1c(C)nn(C)c1C	0.3%	0.0	-3.4	-9	23	-5
57	Oc1ccc(/C=N/Nc2nc(N3CCCC3)nc(N3CCCC3)n2)cc1O	-0.3%	1.5	4.7	17	9	-1
58	O=C(Nc1ccc(N2CCCC2)cc1)C(Cl)c1ccccc1 (stereo not given)	3.0%	0.0	6.5	0	-12	-22
59	NC(=O)CC(NC(=O)c1ccccc1)c1ccc(NCc2ccccc2)c([N+](=O)[O-])c1 (stereo not given)	-0.8%	-0.3	-2.3	-11	-10	-9
60	NC(=O)C1(C(N)=O)OC1c1ccc(Cl)cc1Cl (stereo not given)	1.2%	·	-2.0	-8	·	1

Copied from the list.
Under Six1-Eya2 inh, entry 48 reads -1
Under D2 agonist, entry 59 reads -2.3
Under D2 agonist, entry 54 reads -0.5
Under PINK1 modulator, entry 53 reads 5.8%
Under PINK1 modulator, entry 32 reads -0.6%

Continued:
item	SMILES	PINK1 modulator	TRPML1 agonist	D2 agonist	D2 potentiator	TRPML1 blocker	Six1-Eya2 inh
61	CC(C)c1ccc(/C=C/C(=O)Nc2nc3ccc([N+](=O)[O-])cc3s2)cc1	·	-0.1	6.7	1	-7	4
62	CC(=O)Nc1cccc(-c2cccc3nccn23)c1	0.2%	-0.2	4.2	-3	·	-8
63	Cc1cccc([C@@H]2[C@@H]3C(=O)N(Cc4ccccc4)C(=O)[C@@H]3[C@]3(CC(C)C)C(=O)N(c4cccc(Br)c4)C(=O)N23)c1	0.7%	0.5	-2.9	-9	-3	-5
64	Cc1ccc(C(=O)NC2CCCCNC2=O)cc1 (stereo not given)	-0.1%	0.7	-0.2	0	9	-7
